Source: PubChem (several laboratories)
eIF4H inh: inhibitors of RNA binding by human eIF4H; Q15056; eIF4H fluorescence polarization binding assay; inhibition, % at 35 µM; 0.94% of 290,000 active; AID 2012;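 active = 50% or more with normal probe brightness, or confirmed in later tests; inconclusive = above 50% with abnormal brightness, or retests that disagree; inactive = below 50% or failed in later tests; about a fifth of its hits are not listed in these tables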;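 also: calls also rest on retests at 20 µM and on dose response follow-up; 0% = protein and probe with vehicle and 100% = probe without protein; strong numbers were not always called active; many hits fall short of the cut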
CSC inhib: cancer stem cell inhibition; cancer stem cell-like cells viability, luminescence; inhibition, % at 7.5 µM; 1.1% of 300,000 active; AID 2717;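 active = mean at 75% or more and at least half the replicates too; inconclusive = mean and replicates disagree; tested in HMLE shEcad cells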;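 also: 0% = median of negative and 100% = median of positive control wells; the first replicate is given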
HIV Env fusion: inhibitors of HIV Env-mediated cell fusion. 1.1% of 360,000 active. HeLa-JRFL Env/CEM21 cell fusion, luciferase. AID 651610. inhibition, % at 12.3 µM;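 active = mean replicate inhibition score of at least 50 and every replicate individually at or above 50; inconclusive = only one of the two criteria met; inactive = mean below 50 and not all replicates reaching 50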;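 also: 0% = plate neutral controls and 100% = maraviroc near 300 nM; one replicate is shown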
PABP polyA inh: PABP-poly(A) binding inhibition. P11940. PABP-poly(A) RNA binding, fluorescence polarization. inhibition, % at 35 µM. 1% of 290,000 active;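 active = 50% or more with normal probe brightness, or confirmed in later tests; inconclusive = above 50% with abnormal brightness, or retests that disagree; inactive = below 50% or failed in later tests; about a fifth of its hits are not listed in these tables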;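 also: calls also rest on retests at 20 µM and on dose response follow-up; controls were probe without protein and protein plus probe with vehicle; some compounds called inactive have numbers as strong as hits; many hits fall short of the cut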
Target sequence (P11940 whole entry, looked up): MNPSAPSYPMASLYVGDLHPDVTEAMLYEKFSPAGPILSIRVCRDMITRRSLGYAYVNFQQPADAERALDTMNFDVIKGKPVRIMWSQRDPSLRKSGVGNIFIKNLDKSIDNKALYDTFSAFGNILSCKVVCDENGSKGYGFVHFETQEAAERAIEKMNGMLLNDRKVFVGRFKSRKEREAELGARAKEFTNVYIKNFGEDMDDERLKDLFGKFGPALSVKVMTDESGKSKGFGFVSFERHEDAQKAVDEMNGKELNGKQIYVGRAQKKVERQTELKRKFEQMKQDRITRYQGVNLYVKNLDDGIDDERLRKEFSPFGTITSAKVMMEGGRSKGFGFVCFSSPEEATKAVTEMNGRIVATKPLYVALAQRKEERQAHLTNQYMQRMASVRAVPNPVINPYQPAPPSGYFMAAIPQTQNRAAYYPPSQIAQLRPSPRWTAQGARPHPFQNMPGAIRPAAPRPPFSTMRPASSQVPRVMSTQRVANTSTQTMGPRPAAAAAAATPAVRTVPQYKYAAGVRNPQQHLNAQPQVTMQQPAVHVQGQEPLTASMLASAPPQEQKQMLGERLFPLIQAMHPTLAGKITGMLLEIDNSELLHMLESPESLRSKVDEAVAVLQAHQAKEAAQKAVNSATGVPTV
Rce1 inh: blocks yeast Ras-converting enzyme. yeast membranes, quenched prenylated peptide cleavage fluorescence. calls only. 0.27% of 290,000 active. AID 2563;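 active = fall in fluorescence gain of 50% or more versus controls, with final raw signal at or below 3038400; inconclusive = same 50% fall but final raw signal above 3038400; inactive = fall in fluorescence gain under 50%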;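 also: plate controls were neutral control wells for no effect and wells lacking membranes for full effect; tested at 10 µM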
Target sequence (Q03530 whole entry, looked up): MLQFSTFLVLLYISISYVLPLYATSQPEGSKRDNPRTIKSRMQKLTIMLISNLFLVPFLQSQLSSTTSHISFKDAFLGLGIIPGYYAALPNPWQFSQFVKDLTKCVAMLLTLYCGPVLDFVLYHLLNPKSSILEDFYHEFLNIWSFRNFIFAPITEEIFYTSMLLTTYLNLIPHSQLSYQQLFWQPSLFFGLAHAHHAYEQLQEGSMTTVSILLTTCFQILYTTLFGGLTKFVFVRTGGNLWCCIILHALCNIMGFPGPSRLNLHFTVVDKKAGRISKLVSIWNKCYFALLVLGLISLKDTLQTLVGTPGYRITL
UUG fidelity: yeast start codon fidelity modulation; S. cerevisiae UUG-firefly luciferase reporter, luminescence/redox ratio; 0.13% of 350,000 active; AID 602363; activity score, % at 18.7 µM;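 active = replicate mean at a twofold rise or more, about +100% in these data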;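 also: firefly luciferase made from a UUG start codon reports start codon fidelity; reporter light over untreated wells divided by growth signal over untreated wells; some hits fall short of that in this replicate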
MT1-MMP act inh: MT1-MMP (human) activation inhibition; 0.061% of 360,000 active; P50281; GFP/RFP ratio change, % at 20 µM; HT1080 RFP-PRO-GFP cells, GFP/RFP ratio fluorescence, overnight; percent of plate control window, DMSO zero;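 active = GFP/RFP ratio change of at least 30% with cell ATP level not reduced by more than half and red fluorescence within 50% of control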; also: strong numbers were not always called active
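Assay system: HT1080 RFP-PRO-GFP cells. Benchmarks: DMSO vehicle wells and RFP-L50D-GFP reporter cell wells. Times: overnight cell settling, then overnight compound exposure, 37 °C, 5% CO2. Compound: 20 µM single dose, 1% DMSO. Read-out basis: GFP/RFP fluorescence ratio.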
MT1-MMP act inh RFP: further read-out of MT1-MMP act inh, marked with its call; RFP signal change, %; measured here: RFP expression control read;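 0 = vehicle wells; hits needed this value within 50% of zero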
The depositor's hits bear a star.

CSCc1nnc(NC(=O)c2ccc(S(=O)(=O)N(CC(C)C)CC(C)C)cc2)o1 was read as eIF4H inh 13.2, PABP polyA inh 0.5 and Rce1 inh inactive.
For Cc1cccc(NC(=S)N(CCN(C)C)C(C)c2ccccn2)c1 (stereo not drawn) the results were eIF4H inh -3.9, CSC inhib -17.8, HIV Env fusion -5.0, PABP polyA inh 0.2, Rce1 inh inactive, UUG fidelity -25.6, MT1-MMP act inh -0.6 and MT1-MMP act inh RFP 4.0.
CC(C)C(NC(=O)c1ccco1)C(=O)NC1CCCCCC1 (stereo not drawn) was read as eIF4H inh -1.7, CSC inhib -6.6, HIV Env fusion 0.0, PABP polyA inh -3.9, Rce1 inh inactive, UUG fidelity -18.6, MT1-MMP act inh -5.9 and MT1-MMP act inh RFP 2.2.
For CCOC(=O)N1CCC(N2C(=O)c3ccccc3C2Nc2c(C)cccc2C)CC1 (stereo not drawn) the results were eIF4H inh -5.7, HIV Env fusion 0.6, PABP polyA inh -0.6, Rce1 inh inactive, UUG fidelity -4.1, MT1-MMP act inh -3.9 and MT1-MMP act inh RFP 2.4.
For COc1ccc(NC(=O)c2c(C)noc2C)cc1S(=O)(=O)N1CCCCC1 the results were HIV Env fusion 21.4, UUG fidelity -21.1, MT1-MMP act inh 1.6 and MT1-MMP act inh RFP 6.3.
Screening CC(=O)OCC1=C(C(=O)O)N2C(=O)C(NC(=O)COc3ccc(F)cc3)C2SC1 (stereo not drawn) returned HIV Env fusion 4.2, UUG fidelity -9.4, MT1-MMP act inh 0.1 and MT1-MMP act inh RFP 5.0.
`CCN(CC)c1ccc(/C=N/n2c(=S)[nH]nc(C)c2=O)cc1` gave eIF4H inh -2.4, CSC inhib -1.6, PABP polyA inh 6.6, Rce1 inh inactive, UUG fidelity -0.3, MT1-MMP act inh -1.2 and MT1-MMP act inh RFP 0.5.
For Cc1cc(F)ccc1NC(=O)C1CCN(S(=O)(=O)c2ccc3c(c2)CCCC(=O)N3)CC1 the results were eIF4H inh -21.8, CSC inhib -19.0, HIV Env fusion 3.7, PABP polyA inh 8.5, Rce1 inh inactive, UUG fidelity -8.9, MT1-MMP act inh 1.2 and MT1-MMP act inh RFP -3.7.
For COc1ccc(N2C(=O)CC(Sc3n[nH]c(-c4ccccc4)n3)C2=O)cc1 (stereo not drawn) the results were eIF4H inh 7.3, CSC inhib -7.8, HIV Env fusion 1.7, PABP polyA inh 5.2, Rce1 inh inactive, UUG fidelity -10.0, MT1-MMP act inh 3.1 and MT1-MMP act inh RFP -1.5.
Screening COc1cc2[nH]c(C(=O)N3CCN(C)CC3)cc2c(OC)c1OC returned eIF4H inh -2.9, CSC inhib -3.6, HIV Env fusion -7.7, PABP polyA inh 2.1, Rce1 inh inactive, UUG fidelity 1.0, MT1-MMP act inh 1.1 and MT1-MMP act inh RFP 1.8.
Screening CCN1CCN(C(=O)/C=C/c2ccc(C)cc2)CC1 returned eIF4H inh 8.6, CSC inhib -8.2, HIV Env fusion 1.6, PABP polyA inh 9.1, Rce1 inh inactive, UUG fidelity -5.6, MT1-MMP act inh 1.6 and MT1-MMP act inh RFP 1.7.
COc1cc2cc(C(=O)O)[nH]c2c(OC)c1OC was read as eIF4H inh -0.7, CSC inhib -15.3, PABP polyA inh -1.5, Rce1 inh active, UUG fidelity -21.0, MT1-MMP act inh 18.0 and MT1-MMP act inh RFP 4.0.

Reprinted from the part before: two entries, followed by the next part.
Screening CCN1CCN(C(=O)/C=C/c2ccc(C)cc2)CC1 returned eIF4H inh 8.6, CSC inhib -8.2, HIV Env fusion 1.6, PABP polyA inh 9.1, Rce1 inh inactive, UUG fidelity -5.6, MT1-MMP act inh 1.6 and MT1-MMP act inh RFP 1.7.
COc1cc2cc(C(=O)O)[nH]c2c(OC)c1OC was read as eIF4H inh -0.7, CSC inhib -15.3, PABP polyA inh -1.5, Rce1 inh active, UUG fidelity -21.0, MT1-MMP act inh 18.0 and MT1-MMP act inh RFP 4.0.
C/C(CCC1CC(C)OC1=O)=N\NC(N)=S (stereo not drawn) was read as eIF4H inh -6.9, CSC inhib -5.1, HIV Env fusion -21.9, PABP polyA inh 0.5, Rce1 inh inactive, UUG fidelity -23.3, MT1-MMP act inh 0.8 and MT1-MMP act inh RFP -1.5.
Screening CCc1nc(SC)[nH]c(=O)c1C returned eIF4H inh -6.6, CSC inhib 2.7, HIV Env fusion -207.2, PABP polyA inh -1.2, Rce1 inh inactive, UUG fidelity -1.9, MT1-MMP act inh 3.7 and MT1-MMP act inh RFP 6.3.
For Cc1onc(-c2ccccc2Cl)c1C(=O)OCC(=O)c1ccc[nH]1 the results were Rce1 inh inactive, UUG fidelity -18.3, MT1-MMP act inh 0.0 and MT1-MMP act inh RFP 1.9.
`COCCn1c(SCc2ccc(C)cc2)nc2c1c(=O)[nH]c(=O)n2C` gave CSC inhib -15.9, HIV Env fusion 7.8, Rce1 inh inactive, UUG fidelity -15.9, MT1-MMP act inh 4.7 and MT1-MMP act inh RFP 3.1.
`CC1CC(OCC(O)CN2CCOCC2)CC(C)(C)C1` (stereo not drawn) gave eIF4H inh 4.4, CSC inhib 0.8, HIV Env fusion 13.5, PABP polyA inh 2.3, Rce1 inh inactive, UUG fidelity -43.1, MT1-MMP act inh 3.6 and MT1-MMP act inh RFP 2.0.
O=C(CCc1ccccc1)Nc1sc2c(c1C(=O)O)CCCC2 was read as CSC inhib inconclusive, HIV Env fusion 1.8, Rce1 inh inactive, UUG fidelity -10.7, MT1-MMP act inh 1.7 and MT1-MMP act inh RFP -0.4.
For CC1CCCCN1S(=O)(=O)c1ccc([N+](=O)[O-])cc1 (stereo not drawn) the results were eIF4H inh -4.7, CSC inhib 1.1, HIV Env fusion 1.2, PABP polyA inh -2.3, Rce1 inh inactive, UUG fidelity -20.6, MT1-MMP act inh 1.3 and MT1-MMP act inh RFP 2.1.
O=C(Nc1ccc2c(c1)OCO2)c1ccc(Cl)c(S(=O)(=O)N2CCOCC2)c1 was read as eIF4H inh -14.7, CSC inhib -19.7, HIV Env fusion 1.4, PABP polyA inh 5.3, Rce1 inh inactive, UUG fidelity 5.6, MT1-MMP act inh 2.8 and MT1-MMP act inh RFP -6.8.
COCCn1nnnc1CN1CCC(C)CC1 was read as eIF4H inh -4.1, CSC inhib -7.8, HIV Env fusion -70.5, PABP polyA inh 18.6, Rce1 inh inactive, UUG fidelity -8.9, MT1-MMP act inh 3.3 and MT1-MMP act inh RFP -0.2.
`C#CCNC(=O)C1=C[C@H](c2ccc(Br)cc2)C[C@H](OCc2ccc(CO)cc2)O1` gave eIF4H inh -6.6, CSC inhib -3.0, HIV Env fusion -14.6, PABP polyA inh 1.1, Rce1 inh inactive, UUG fidelity -12.0, MT1-MMP act inh 1.1 and MT1-MMP act inh RFP -3.3.
`CC(/C=N/NC(=O)CN1CCN(Cc2ccc(Cl)cc2)CC1)=C\c1ccco1` gave eIF4H inh 3.4, CSC inhib 2.4, HIV Env fusion -9.9, PABP polyA inh -7.2, Rce1 inh inactive, MT1-MMP act inh -0.1 and MT1-MMP act inh RFP 4.2.
For COc1ccccc1C1(O)CCN(C(=O)c2cccs2)CC1 the results were eIF4H inh 3.2, CSC inhib 5.2, PABP polyA inh -0.1, Rce1 inh inactive, MT1-MMP act inh 0.3 and MT1-MMP act inh RFP 2.5.
Screening COc1ccc(-c2nc(CCNC(=O)c3cccs3)cs2)cc1 returned eIF4H inh -10.5, CSC inhib -5.1, HIV Env fusion inconclusive, PABP polyA inh 16.1, Rce1 inh inactive, UUG fidelity -0.4, MT1-MMP act inh -3.9 and MT1-MMP act inh RFP -20.9.
COc1cc(C(=O)N(Cc2cccc(Cl)c2)C2CCS(=O)(=O)C2)cc(OC)c1OC (stereo not drawn) was read as eIF4H inh 36.5, CSC inhib -10.9, HIV Env fusion 3.2, PABP polyA inh 5.6, Rce1 inh inactive, UUG fidelity -12.5, MT1-MMP act inh 2.0 and MT1-MMP act inh RFP 5.3.
Screening Cc1cccc(C)c1NCC(=O)N1CCN(Cc2ccccc2)CC1 returned eIF4H inh -7.7, CSC inhib -11.0, HIV Env fusion -9.6, PABP polyA inh 9.1, Rce1 inh inactive, UUG fidelity 0.1, MT1-MMP act inh 5.5 and MT1-MMP act inh RFP 1.2.
`CCN(CC)CCSc1nc(O)c(Cc2ccccc2)c(=O)n1-c1ccccc1` gave eIF4H inh -2.6, CSC inhib -3.1, HIV Env fusion -12.1, PABP polyA inh -7.5, Rce1 inh inactive, MT1-MMP act inh -3.9 and MT1-MMP act inh RFP -1.2.
`Cc1ccc(Cl)cc1N1CCN(S(=O)(=O)c2c(C)[nH]c(C)c2C(=O)N2CCCCC2)CC1` gave eIF4H inh 10.1, CSC inhib -9.9, HIV Env fusion 22.2, PABP polyA inh 16.8, Rce1 inh inactive, UUG fidelity -2.0, MT1-MMP act inh -4.4 and MT1-MMP act inh RFP -4.0.
Screening Oc1ccccc1Oc1ncc(Br)c(Cl)n1 returned eIF4H inh 0.9, CSC inhib 0.0, HIV Env fusion -1.4, PABP polyA inh 0.4, Rce1 inh inactive, UUG fidelity -14.1, MT1-MMP act inh 0.7 and MT1-MMP act inh RFP -3.9.
Screening Cc1ccc(S(=O)(=O)N2CCOCC2)cc1C(=O)OC1CCOC1=O (stereo not drawn) returned HIV Env fusion 0.4, UUG fidelity -9.9, MT1-MMP act inh -6.2 and MT1-MMP act inh RFP 1.5.
Cc1sc(NC(=O)C2CC(Cl)=CCC2C(=O)O)c(C#N)c1C (stereo not drawn) was read as eIF4H inh 2.6, CSC inhib 22.0, HIV Env fusion 5.4, PABP polyA inh -6.6, Rce1 inh inactive, MT1-MMP act inh -6.0 and MT1-MMP act inh RFP 1.2.
N#Cc1ccccc1C[C@H](N)C(=O)NC[C@H]1O[C@@H](n2cnc3c(N)ncnc32)[C@H](O)[C@@H]1O was read as HIV Env fusion inconclusive, UUG fidelity -6.7, MT1-MMP act inh 0.4 and MT1-MMP act inh RFP 1.4.
CC1CN(c2ccc([N+](=O)[O-])cc2C#N)CC(C)O1 (stereo not drawn) was read as eIF4H inh -3.9, CSC inhib -6.0, HIV Env fusion -29.6, PABP polyA inh -1.2, Rce1 inh inactive, UUG fidelity 9.0, MT1-MMP act inh 7.9 and MT1-MMP act inh RFP 0.8.
Screening COCCn1c(C23CC4CC(CC(C4)C2)C3)n[nH]c1=S returned eIF4H inh -4.0, CSC inhib -13.1, PABP polyA inh 0.9, Rce1 inh inactive, UUG fidelity -7.8, MT1-MMP act inh 2.1 and MT1-MMP act inh RFP -3.1.
COc1ccc(CNC(=O)CCN2C(=O)[C@@H]3Cc4ccccc4CN3C2=O)cc1 was read as eIF4H inh -19.3, CSC inhib 3.9, HIV Env fusion -0.8, PABP polyA inh -4.5, Rce1 inh inactive, UUG fidelity -21.8, MT1-MMP act inh -2.4 and MT1-MMP act inh RFP 2.1.
CCOc1ccc(Cc2nnc(SCC(=O)Nc3ccccc3)n(N)c2=O)cc1 was read as CSC inhib 1.4, HIV Env fusion 0.8, Rce1 inh inactive, UUG fidelity -13.2, MT1-MMP act inh 5.9 and MT1-MMP act inh RFP -1.9.
Screening COC(c1ccccc1)c1nnc(CCC(=O)N2CCN(CCOc3ccccc3)CC2)o1 (stereo not drawn) returned eIF4H inh -12.7, CSC inhib 4.1, HIV Env fusion 18.5, PABP polyA inh 0.4, Rce1 inh inactive, UUG fidelity 0.1, MT1-MMP act inh 0.7 and MT1-MMP act inh RFP -0.7.
Screening O=C(Nc1ccc(Br)cc1F)c1ccc2nsnc2c1 returned eIF4H inh -12.0, CSC inhib -7.0, HIV Env fusion -70.7, PABP polyA inh 4.9, Rce1 inh inactive, UUG fidelity -19.5, MT1-MMP act inh 3.1 and MT1-MMP act inh RFP 0.2.

Some of the compounds tested, so the mix of outcomes need not match the whole.
